Screening results from PubChem BioAssay.
VDR inh – vitamin D3 receptor (human) inhibition | AID 504847 | hit rate 0.93% among 400,000 | VDR-SRC2-3 peptide fluorescence polarization, 2 h | P11473 | Potency, µM, inactives show max response, negative = inhibition, hits mostly inhibitors; active = well fitted inhibition curve with a large enough effect; inconclusive = small, poorly fitted or top-dose-only effect, or another doubt; inactive = no such curve, though single readings can be large or run the other way; also: series mostly up to about 120 µM
Target sequence (P11473 whole entry, looked up): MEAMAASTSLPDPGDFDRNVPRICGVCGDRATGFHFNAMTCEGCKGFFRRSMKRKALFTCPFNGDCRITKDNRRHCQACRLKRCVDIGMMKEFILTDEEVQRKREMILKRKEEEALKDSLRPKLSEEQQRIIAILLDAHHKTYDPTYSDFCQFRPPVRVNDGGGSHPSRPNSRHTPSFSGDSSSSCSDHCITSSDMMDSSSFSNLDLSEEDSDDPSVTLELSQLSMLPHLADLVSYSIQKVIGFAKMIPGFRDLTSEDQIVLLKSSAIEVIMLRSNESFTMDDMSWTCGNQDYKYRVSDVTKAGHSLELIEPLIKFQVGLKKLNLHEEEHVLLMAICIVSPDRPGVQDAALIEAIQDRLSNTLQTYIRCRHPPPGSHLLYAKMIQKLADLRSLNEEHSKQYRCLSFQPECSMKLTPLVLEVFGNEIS
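Fluorescence polarization assay of small-molecule disruption of VDR binding to coregulator peptide SRC2-3. Compounds and controls pin-transferred, then read after 2 h incubation at ambient room temperature.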
Starred values were filed as active, the others as inactive; u = inconclusive. % is scaled to controls: 0 for no effect and ±100 for the full control effect; potency is read from the fitted curve at half-maximal effect. Some of the compounds tested (hit frequency here may not be typical).

mol	VDR inh
COc1ccc(S(=O)(=O)N2CCN(CC(=O)Nc3cc(C(F)(F)F)ccc3Cl)CC2)cc1	4%
COc1ccc(NS(=O)(=O)c2ccc3oc(=S)[nH]c3c2)cc1	5%
Cc1cc(C(F)(F)F)nc(SCc2ccc(C(=O)O)o2)n1	-17%
Cn1c(=O)c2c(nc(SCC(=O)Nc3ccccc3F)n2Cc2ccccc2F)n(C)c1=O	11%
Cc1ccc(-n2c(C)cc3c2CCCC3=O)cc1	13%
CCCNC(=O)C12CCC(C)(c3nc4cc(C)c(C)cc4nc31)C2(C)C (stereo not given)	-1%
CC1CCN(C(=O)COC(=O)Cc2ccc(Br)cc2)CC1	-5%
O=C(c1ccccc1)N1CCCCC(Cl)C1=O (stereo not given)	-11%

A different layout for some results above.
VDR inh | SMILES
5% | COc1ccc(NS(=O)(=O)c2ccc3oc(=S)[nH]c3c2)cc1
-17% | Cc1cc(C(F)(F)F)nc(SCc2ccc(C(=O)O)o2)n1
11% | Cn1c(=O)c2c(nc(SCC(=O)Nc3ccccc3F)n2Cc2ccccc2F)n(C)c1=O

(listing goes on)
mol	VDR inh
CCC1NC(=S)N(C2CCCCC2)C1=O (stereo not given)	6%
CCCn1nnc(NC(=O)/C=C/c2ccc(C(C)C)cc2)n1	-3%
O=C(c1ccc2snnc2c1)N1CCCC1	10%
CC(C)Cn1c(CNC(=O)c2ccccc2)nc2ccccc21	-1%
COc1ccccc1NC(=O)C1=C(C)Nc2nc(-c3ccccc3)nn2C1c1ccccn1 (stereo not given)	11%
CCSc1nnc([C@H](C)NC(=O)OC(C)(C)C)o1	-9%
O=C(CN1C(=O)CCS(=O)(=O)c2ccccc21)Nc1ccc(Cl)cc1	-10%
COc1ccc(OC)c(C2C(C(=O)N3CCCCC3)=C(C)Nc3nc4ccccc4n32)c1 (stereo not given)	-9%
Cc1cnc(NC(=O)COc2ccccc2Cl)s1	1%
O=C(NC1(C(F)(F)F)C(=O)Nc2c1c(=O)[nH]c(=O)n2Cc1ccccc1)c1ccc(Cl)cc1 (stereo not given)	-18%
CCOC(=O)[C@H]1[C@H]2COc3ccc(OC)cc3[C@@H]2N2C(=O)CN(Cc3ccc(F)cc3)C(=O)[C@@]12C	-2%
CC(NC(=O)c1cc(S(=O)(=O)N(C)C)ccc1Cl)c1ccc(-n2ccnc2)cc1 (stereo not given)	-6%
Cc1nc2ccc(S(=O)(=O)NC(C(=O)N3CCN(c4cccc(Cl)c4)CC3)C(C)C)cc2s1 (stereo not given)	-14%
O=C(CCS(=O)(=O)c1ccccc1)Nc1ncc([N+](=O)[O-])s1	-7%
O=C1OCCN1c1ccccc1	-20%
CCCOc1ccc(N2C(=O)CC(N(Cc3ccco3)C(C)=O)C2=O)cc1 (stereo not given)	13%

A second format for some results above.
CC(NC(=O)c1cc(S(=O)(=O)N(C)C)ccc1Cl)c1ccc(-n2ccnc2)cc1 (stereo not given)
  VDR inh: -6%
Cc1nc2ccc(S(=O)(=O)NC(C(=O)N3CCN(c4cccc(Cl)c4)CC3)C(C)C)cc2s1 (stereo not given)
  VDR inh: -14%

The list continues.
mol	VDR inh
O=C(O)C1CC=CCC1C(=O)Nc1ccc(F)c(F)c1 (stereo not given)	-7%
COc1ccc(NC(=O)Nc2sc(=S)n(C)c2C)cc1	-2%
Cn1c(=O)c2cc3ccccc3nc2n(C)c1=O	10%
c1ccc(Cn2c(SCc3nc4ccccc4s3)nnc2-c2ccco2)cc1	-24%
Cc1ccc([N+](=O)[O-])cc1S(=O)(=O)N1CCNCC1	-26%
Cn1c(=O)c2c(nc(N3CCOCC3)n2Cc2ccccc2F)n(C)c1=O	-14%
COc1cccc(CN2CCC(n3nccc3NC(=O)CCCc3ccccc3)CC2)c1O	6%
O=C(COC(=O)c1nc(Cl)ccc1Cl)NC(=O)c1ccccc1	0%
CCn1nnc(NC(=O)c2ccc(Br)o2)n1	4%
Cn1c(CCNC(=O)c2ccco2)nc2cc(NC(=O)c3ccccc3)ccc21	11%
CCCCOc1ccc(C(=O)NCC(=O)N2CCN(Cc3ccc4c(c3)OCO4)CC2)cc1	u
COc1ccc(CCNS(=O)(=O)c2ccc3c(c2)NC(=O)CS3)cc1OC	-15%
COc1cc(C(=S)N2CCOCC2)cc(OC)c1OC(=O)Cc1ccc(F)cc1	u
CC(NC(=O)COC(=O)c1ccc([N+](=O)[O-])o1)c1ccccc1 (stereo not given)	7%
CCCCOc1ccccc1C(=O)NNC(=S)NC(=O)c1ccccc1[N+](=O)[O-]	7%
CCCc1c(O)nc(SCCN(CC)CC)[nH]c1=O	-5%
COc1ccc(C)cc1S(=O)(=O)Nc1ccc(F)cc1	-2%
COC(=O)c1c(C)oc(C)c1S(=O)(=O)NC(C)(C)C	-3%
Cc1ccc(N=Cc2ccc[nH]2)c(O)c1	-16%
COc1ccc(CNC(=O)CN(C(=O)CCC(=O)Nc2ccccn2)c2cccc(C)c2C)cc1	12%
OCCCc1ccc(O)c(O)c1	-13%
Cc1cccc(NC(=O)COC(=O)Cc2c[nH]c3ccccc23)c1C	3%
CCOC(=O)c1cccc(NS(=O)(=O)c2cc(-c3cnc(C)o3)ccc2OC)c1	1%
CC(=O)Nc1ccccc1Oc1ccccc1	-8%
O=c1c2c(-c3ccc([N+](=O)[O-])cc3)csc2nc2n1CCC2	-14%
CC(C)c1ccc(NC(=O)Cc2cn(C)c3ccccc23)cc1	-17%
COc1ccc(-c2noc(CN3CCC(Cc4ccccc4)CC3)n2)cc1	7%
CCc1nnc(NC(=O)CSc2nc(N)c(NC(=O)c3ccc(OC)cc3)c(=O)[nH]2)s1	7%
O=C(CN1CCOCC1)N1N=C(c2cccs2)CC1c1cccs1 (stereo not given)	-4%
O=C(O)CC(NC(=O)/C(=C/c1ccccc1)NC(=O)c1ccccc1)c1ccccc1 (stereo not given)	-10%
O=C(O)c1cc(C(=O)C2CC2)c[nH]1	-3%
CC(C)C(c1nnnn1C1CCCCC1)N1CCc2ccccc2C1 (stereo not given)	20%
CC(=O)c1cccc(S(=O)(=O)NC2CCSc3ccccc32)c1 (stereo not given)	-10%
CCOC(=O)[C@H]1[C@H]2COc3ccccc3[C@@H]2N2C(=O)CN(Cc3ccccc3)C(=O)[C@@]12C	-2%
COc1cccc(C(c2sc3ncnn3c2O)N2CCN(C(=O)c3ccco3)CC2)c1 (stereo not given)	-13%
CC(C)CCSc1nc2[nH]ncc2c(=O)[nH]1	0%
Cc1cccc(N(CC(=O)NCCc2ccccc2)C(=O)CCC(=O)Nc2ccccn2)c1C	-1%
COC(=O)C1CCN(Cc2cn(Cc3ccccc3)nc2-c2cc3ccccc3o2)CC1	-7%
COC(=O)/C(=C/c1ccc(OC)cc1)NC(=O)c1ccco1	11%
CC(=O)c1ccc(OCc2cc(C(=O)N3CCOCC3)no2)cc1	-10%
O=C(Nc1cc(Sc2nc3ccccc3s2)cc([N+](=O)[O-])c1)c1ccccc1F	-1%
COc1ccc(NS(=O)(=O)c2cc(-c3cnc(C4CC4)o3)ccc2C)cc1	-15%
O=C(COC(=O)/C=C/c1ccc(S(=O)(=O)N2CCOCC2)cc1)Nc1ccccc1F	-5%
Cc1ccc(-c2csc3nc(C)n(N)c(=O)c23)o1	-5%
O=C(NC1CCN(Cc2ccccc2)C1)c1cc(COc2ccc(F)cc2F)on1 (stereo not given)	-15%
COc1cc(NS(=O)(=O)c2ccc3[nH]c4c(c3c2)CCCCCC4)cc(OC)c1	5%
O=C(c1ccc([N+](=O)[O-])cc1)N1CCOC12CCN(c1ncc(C(F)(F)F)cc1Cl)CC2	-4%
CCCNC(=O)COC(=O)c1ccc(S(=O)(=O)N2CCCC2)cc1	6%
COc1ccc(NS(=O)(=O)c2cccc(C(=O)NC3CCN(Cc4ccccc4)CC3)c2)cc1	-6%
CCC(=O)Nc1ccc(NC(=O)c2cc3ccccc3o2)c(OC)c1	-13%
COc1ccc(Cl)cc1NC(=S)N1CCN(C(=O)c2ccco2)CC1	-1%
COC(=O)CSc1nc(NCc2ccccc2)nc(N(C)C)n1	3%
COC(=O)/C=C/c1ccc2c(c1)S(=O)(=O)N(Cc1ccc(OC)cc1)[C@H]2CC(=O)OC	-4%
Cc1ccc(C)c(N2CCN(C(=O)c3cc4cc5ccc(C)cc5nc4s3)CC2)c1	-4%
Cn1c(NCc2ccco2)nc2ccccc21	-12%
CC(CNC(=O)CCCn1c(=O)c2cccn2c2cccnc21)c1ccccc1 (stereo not given)	3%

(next part)
mol	VDR inh
CC(NC(=O)Nc1ccccc1)C(c1cccs1)N1CCN(C)CC1 (stereo not given)	2%
CCC1CCCCN1CCCNC(=O)Cn1cc2c(n1)-c1c(oc(C(=O)N3CCCC3)c1C)CC2 (stereo not given)	2%
Cc1cc(C)n(C(=O)CNC(=O)c2cccc(Cl)c2)n1	21%
CCCc1sc(C(=O)Nc2nnc(C3CC3)s2)cc1CC	-11%
CC(=O)Nc1nnc(SCc2cc(=O)c3cccc(Cl)c3[nH]2)s1	6%
CC(=O)N1CCc2c(sc3c2c(=O)n(-c2ccccc2)c(=O)n3CC(=O)Nc2cc(C)cc(C)c2)C1	-6%
CCOC(=O)c1c(-c2cccc([N+](=O)[O-])c2)csc1NC(=O)C1CC1	3%
CCOC(=O)c1cc(C(=O)NC(C)c2ccccc2)c(C)[nH]c1=O (stereo not given)	-13%
CSCCC(NC(=O)c1ccco1)C(=O)NCC(C)(C)N1CCOCC1 (stereo not given)	5%
O=C(CN1CCN(c2ccc(C(F)(F)F)cn2)CC1)NCc1ccc2c(c1)OCO2	-11%
COc1ccc(C(=O)Nc2ncccc2C)cc1S(=O)(=O)N1CCOCC1	-19%
CC(C)c1ccc(NC(=O)C2CCN(S(=O)(=O)c3ccc4c(c3)C(C)(C)C(=O)N4C)CC2)cc1	-8%
COc1ccc(C(=O)Nn2c(CCC(=O)O)ccc2-c2ccc(C)cc2)cc1OC	7%
Cc1ccc(C)c(N2CCN(CCCNC(=O)c3ccc4nc(CCc5ccccc5)oc4c3)CC2)c1	6%
Cc1cccc(CN2CCC(CNC(=O)CSc3cc(=O)n(C)c4cc(Cl)ccc34)CC2)c1	-1%
O=C(NCCNC(=O)c1cc(OCC(F)(F)F)ccc1OCC(F)(F)F)Nc1cccc(C(F)(F)F)c1	16%
Cc1ccc(OCC(=O)Nc2ccccc2C(=O)N2CCCCC2)cc1	7%
CCOc1ccc(Sc2cc(C(=O)NCc3ccccc3Cl)c3ccccc3n2)cc1	0%
COc1ccc(NC(=O)COc2ccc(CNCCCN3CCOCC3)cc2OC)cc1	-15%
O=C(CN1C(=O)NC(c2ccccc2)(c2ccccc2)C1=O)Nc1cccnc1Cl	-6%
COc1cc(-c2noc(-c3ccc(N4CCCC4)c([N+](=O)[O-])c3)n2)cc(OC)c1OC	10%
O=C(CSc1nnc(-c2cccnc2)o1)N1CCCCC1	-19%
COC(=O)c1cccc(-n2nnnc2SCC(=O)Nc2nc3c(s2)CCCC3)c1	18%
CC[C@H](C)[C@@H](NC(=O)O[C@@H]1C(=O)c2cc(Br)ccc2O[C@H]1c1ccc2c(c1)OCO2)C(=O)OC	0%
Cc1ccc(S(=O)(=O)N(C)CC(=O)NCc2ccncc2)cc1	-9%
Cc1cc(C)n(C(=O)c2cc3ccccc3c(=O)o2)n1	1%
O=C(N1CCCCC1)N1CCN(C(=O)N2CCCCC2)CC1	26%
CCCc1nc2c(sc3nc4c(cc32)COC(C)(C)C4)c(=O)n1CCN(C)C	-13%
COc1ccc(-c2cc(-c3nnc(COC(=O)c4ccncc4)o3)c3ccccc3n2)cc1OC	-21%
CSc1cccc(NC(=O)CNC(=O)c2ccc3c(c2)OCO3)c1	-12%
COc1ccc(C(CNC(=O)Cn2c(=O)oc3ccccc32)N(C)C)cc1 (stereo not given)	5%
CCO[C@H]1OC(C(=O)Nc2ccccc2)=C[C@@H](c2cn(C(C)=O)c3ccccc23)[C@@H]1CCCO	13%
COc1ccc2c(c1)c(CC(=O)Nc1nnc(C3CC3)s1)c(C)n2C(=O)c1ccc(Cl)cc1	9%
Cc1noc(C)c1CSCC(=O)OCc1nnc(-c2ccc([N+](=O)[O-])cc2)o1	-24%
CC1CCc2c(sc(NC(=O)Cn3cnc([N+](=O)[O-])n3)c2C(N)=O)C1 (stereo not given)	-16%
O=C(c1ccc(CS(=O)(=O)c2ccc(Br)cc2)o1)N1CCN(c2ncccn2)CC1	-8%
C[C@@H]1CCCCCCCCC(=O)OCCN[C@H](C)CCCCCCCCC(=O)OCCN[C@H](C)CCCCCCCCC(=O)OCCN1	-11%
CCC1Oc2ccc(C)cc2N(CC(=O)N(Cc2ccc3c(c2)OCO3)CC2CCCO2)C1=O (stereo not given)	-16%
CCOC(=O)N1CCN(c2c(Nc3ccc4c(c3)OCCO4)c(=O)c2=O)CC1	9%
O=C(Nc1c2c(nn1-c1cccc(Cl)c1)CS(=O)(=O)C2)c1cccs1	-5%

2 compounds drawn at random from those above:
mol	VDR inh
C[C@@H]1CCCCCCCCC(=O)OCCN[C@H](C)CCCCCCCCC(=O)OCCN[C@H](C)CCCCCCCCC(=O)OCCN1	-11%
COc1ccc2c(c1)c(CC(=O)Nc1nnc(C3CC3)s1)c(C)n2C(=O)c1ccc(Cl)cc1	9%

Later entries.
mol	VDR inh
CC(C)C(c1nnnn1C1CCCC1)N1CCCc2ccccc21 (stereo not given)	2%
CN1CCN(/N=C/c2ccc(N(c3ccccc3)c3ccccc3)cc2)CC1	u
Cc1ccc(C)c(C(=O)COc2ccccc2[N+](=O)[O-])c1	-11%
COC(=O)c1ccc2nc(Nc3nc4ccc(F)cc4s3)sc2c1	-7%
